PABP polyA inh = PABP poly(A) RNA binding inhibitors, primary screen, biochemical, fluorescence polarization, uHTS. Polyadenylate-binding protein 1 (Homo sapiens), P11940. inhibition, % at 35 µM. 290,000 compounds, 1% hits;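 active = 50% or more with normal probe brightness, or confirmed in later tests; inconclusive = above 50% with abnormal brightness, or retests that disagree; inactive = below 50% or failed in later tests; about a fifth of its hits are not listed in these tables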;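 also: calls also rest on retests at 20 µM and on dose response follow-up; controls were probe without protein and protein plus probe with vehicle; some compounds called inactive have numbers as strong as hits; many hits fall short of the cut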
Target sequence (P11940 whole entry, looked up): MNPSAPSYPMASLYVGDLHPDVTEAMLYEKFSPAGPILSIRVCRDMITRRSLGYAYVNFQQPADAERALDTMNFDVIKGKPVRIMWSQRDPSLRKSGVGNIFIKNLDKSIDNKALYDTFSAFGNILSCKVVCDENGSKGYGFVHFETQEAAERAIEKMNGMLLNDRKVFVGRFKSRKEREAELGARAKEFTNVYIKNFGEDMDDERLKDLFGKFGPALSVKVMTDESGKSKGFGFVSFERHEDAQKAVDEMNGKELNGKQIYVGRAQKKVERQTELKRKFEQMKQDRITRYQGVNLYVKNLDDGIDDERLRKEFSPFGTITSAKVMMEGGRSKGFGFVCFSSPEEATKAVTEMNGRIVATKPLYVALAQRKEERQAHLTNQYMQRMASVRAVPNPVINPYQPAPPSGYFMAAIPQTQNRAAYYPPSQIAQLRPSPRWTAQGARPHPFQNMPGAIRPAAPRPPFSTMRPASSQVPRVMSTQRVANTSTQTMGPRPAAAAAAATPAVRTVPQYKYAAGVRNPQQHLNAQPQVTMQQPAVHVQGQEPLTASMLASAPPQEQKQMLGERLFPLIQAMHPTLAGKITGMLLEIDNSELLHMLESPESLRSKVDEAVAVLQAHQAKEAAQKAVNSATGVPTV
CSC inhib = cancer stem cell viability inhibitors, primary screen, luminescence | 300,000 compounds, 1.1% hits | AID 2717, 2010 | cancer stem cell-like cells viability | inhibition, % at 7.5 µM;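 active = mean at 75% or more and at least half the replicates too; inconclusive = mean and replicates disagree; tested in HMLE shEcad cells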;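 also: 0% = median of negative and 100% = median of positive control wells; the first replicate is given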
eIF4H FP inh = human eIF4H binding inhibitors, primary screen, translation initiation inhibitor project, biochemical, uHTS, fluorescence polarization. Eukaryotic translation initiation factor 4H (Homo sapiens), Q15056. eIF4H fluorescence polarization binding assay. inhibition, % at 35 µM. 290,000 compounds, 0.94% hits;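 active = 50% or more with normal probe brightness, or confirmed in later tests; inconclusive = above 50% with abnormal brightness, or retests that disagree; inactive = below 50% or failed in later tests; about a fifth of its hits are not listed in these tables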;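 also: calls also rest on retests at 20 µM and on dose response follow-up; 0% = protein and probe with vehicle and 100% = probe without protein; strong numbers were not always called active; many hits fall short of the cut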
HIV Env fusion = inhibitors of HIV-1 Env-driven cell-cell fusion, primary screen, HeLa-JRFL effector, CEM21 target cells, luciferase | inhibition, % at 12.3 µM | 360,000 compounds, 1.1% hits | AID 651610, 2012;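 active = mean replicate inhibition score of at least 50 and every replicate individually at or above 50; inconclusive = only one of the two criteria met; inactive = mean below 50 and not all replicates reaching 50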;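 also: 0% = plate neutral controls and 100% = maraviroc near 300 nM; one replicate is shown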
Rce1 inh = yeast Rce1p protease inhibitors, primary screen, biochemical, fluorescence, cell-free homogeneous. CAAX prenyl protease 2 (Saccharomyces cerevisiae (strain ATCC 204508 / S288c)), Q03530. calls only. yeast membranes, quenched prenylated peptide cleavage fluorescence. 290,000 compounds, 0.27% hits;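 active = fall in fluorescence gain of 50% or more versus controls, with final raw signal at or below 3038400; inconclusive = same 50% fall but final raw signal above 3038400; inactive = fall in fluorescence gain under 50%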;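 also: plate controls were neutral control wells for no effect and wells lacking membranes for full effect; tested at 10 µM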
MT1-MMP act inh = blockers of MT1-MMP proenzyme processing, primary screen, HT1080 RFP-PRO-GFP cells, GFP/RFP fluorescence; 360,000 compounds, 0.061% hits; Matrix metalloproteinase-14 (Homo sapiens), P50281; GFP/RFP ratio change, % at 20 µM; GFP/RFP ratio fluorescence, overnight; percent of plate control window, DMSO zero;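 active = GFP/RFP ratio change of at least 30% with cell ATP level not reduced by more than half and red fluorescence within 50% of control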; also: strong numbers were not always called active
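Test system: HT1080 RFP-PRO-GFP cells; Benchmarks: DMSO and RFP-L50D-GFP cell wells; Timing: cells overnight before dosing, compound overnight, 37 °C, 5% CO2; Compound: one 20 µM compound dose with 1% DMSO; Read-out: GFP/RFP fluorescence ratio.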
UUG fidelity = modulators of yeast start codon fidelity, primary screen, whole organism, S. cerevisiae, single point, plate reader | S. cerevisiae UUG-firefly luciferase reporter, luminescence/redox ratio | activity score, % at 18.7 µM | 350,000 compounds, 0.13% hits;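 active = replicate mean at a twofold rise or more, about +100% in these data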;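 also: firefly luciferase made from a UUG start codon reports start codon fidelity; reporter light over untreated wells divided by growth signal over untreated wells; some hits fall short of that in this replicate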
eIF4H FP inh retest = recorded beside eIF4H FP inh, whose call it bears; inhibition, %; compound at 20 µM; confirmation average;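 mean of two retest wells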
PABP polyA inh retest = second read-out of PABP polyA inh, no call of its own (marks repeat the call); inhibition, %; compound at 20 µM; confirmation repeats;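 mean of two retest wells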
MT1-MMP act inh RFP = further read-out of MT1-MMP act inh, marked with its call; RFP signal change, %; measured here: RFP expression control read;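 0 = vehicle wells; hits needed this value within 50% of zero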
* = called active by the depositor; i = inactive; u = inconclusive; x = no result given; & = joins results of further samples.

SMILES	PABP polyA inh	CSC inhib	eIF4H FP inh	HIV Env fusion	Rce1 inh	MT1-MMP act inh	MT1-MMP act inh RFP	UUG fidelity	others
CCCCn1c(N)c(N(CCOC)C(=O)Cn2c(=O)oc3ccccc32)c(=O)[nH]c1=O	x	-14	x	-19	i	-1	1	-20
COc1ccc2nc(CC(C)(C)CC(=O)O)c[n+]([O-])c2c1	-5	x	1	x	i	3	8	-23
COc1ccccc1-c1ccc(SCc2ccc([N+](=O)[O-])cc2)nn1	-17	8	1	6	i	-1	-5	x
Cc1nn(-c2ccccc2)c(C)c1NS(=O)(=O)c1ccccc1	5	5	2	-28	i	-1	1	-3
COc1ccccc1-n1c(-c2cccnc2)n[nH]c1=S	7	-9	-1	0	i	1	0	-15
Cc1cccc(NC(=O)COC(=O)c2ccc3c(c2)OCO3)c1C	-13	2	-8	-7	i	-1	0	-15
CCN1CCc2c(sc(NC(=O)c3ccc(C(=O)c4ccccc4)cc3)c2C(N)=O)C1	4	19	2	-44	i	-25	-5	-3
Cc1cccc(S(=O)(=O)N/N=c2\sc3ccccc3n2C)c1	-8	-22	-11	-15	i	5	5	-5
COc1cc(O)c(C(C)=O)c(OC)c1	x	x	x	8	x	-2	-2	-1
CCc1noc(C)c1C(=O)OC(C)C(=O)Nc1ccc2c(c1)OCO2 (stereo not drawn)	x	x	x	7	x	3	0	-6
O=C(NC1=NCCS1)C1CCN(S(=O)(=O)c2ccc(Cl)cc2)CC1	x	5	x	x	x	3	-2	-18
CCN(C[C@H]1N[C@@](CC)(C(=O)OC)[C@H]2C(=O)N(Cc3ccccc3)C(=O)[C@@H]12)C(=O)COC	x	x	x	4	x	2	8	-2
COCCCn1c(SCC(=O)Nc2ccc(C(=O)OC)cc2)nc2ccccc2c1=O	0	-3	4	-7	i	-2	-2	5
COC(=O)c1c(NC(=O)C2CCC2)sc(C(=O)N(C)C)c1C	3	-16	3	27	i	3	1	x
COc1ccccc1Cn1cccc1C=O	4	-3	-7	5	i	1	2	-13
COc1ccc(NS(=O)(=O)c2ccc(NC(=S)NCC3CCCO3)cc2)cc1 (stereo not drawn)	-2	-9	-7	-190	i	4	-4	-22
C=CCNC(=O)NC(=O)COC(=O)C(C)Oc1ccc(Cl)cc1Cl (stereo not drawn)	-3	11	-11	1	i	0	1	x
O=C(Cn1c(=O)cnc2ccccc21)NC1CCC(O)CC1 (stereo not drawn)	x	12	x	x	i	-2	5	-14
COc1nc(N(C)S(=O)(=O)c2ccc(C)cc2)nc(C)c1Cl	-4	12	7	36	i	-10	-12	-7
CCOc1ccccc1N1CCN(C(=O)c2ccc(OCC(=O)N3CCOCC3)c(OC)c2)CC1	28	-8	4	-45	i	-4	-1	4
CCN1CCS/C1=C\C=C\C1=[N+](CC)CCS1	0	x	8	41	i	-19	-27	-7
O=[N+]([O-])c1cc(C(F)(F)F)ccc1NCCNC(=S)Nc1ccc(Cl)cc1	0	106*	-3	x	i	7	-1	x
CCCCc1nc2cc(C(=O)NCCc3c(C)n[nH]c3C)ccc2o1	2	-6	2	1	i	-3	-4	-14
COc1ccccc1N1CCN(C(=S)Nc2ccccc2)CC1	5	-4	6	-15&-17	i	1&4	1&0	-12&-11
Cc1cccc(N=Cc2cc(Br)cc(Cl)c2O)c1	35	10	17	1	i	2	0	x
SMILES	PABP polyA inh	CSC inhib	eIF4H FP inh	HIV Env fusion	Rce1 inh	MT1-MMP act inh	MT1-MMP act inh RFP	UUG fidelity	others
Cc1ccccc1NC(=O)C1CCCN(S(=O)(=O)c2cccc3cccnc23)C1 (stereo not drawn)	-3	-28	-5	-32	i	1	3	-12
CCCCP(=O)(CCCC)Cc1ccccc1	32	-10	6	x	i	2	10	-12
COc1ccc(C(=O)Nc2cccc(C)c2)cc1S(=O)(=O)N1CCOCC1	2	x	-10	x	i	6	7	x
COC(=O)N/N=C/c1cc(Cl)cc(Cl)c1OCc1ccccc1	3	-4	8	-28	i	5	2	-22
CN(C)CCn1c(=S)[nH]c2ccc(Cl)cc2c1=O	12	-18	6	-19	i	-17	-4	-6
C[C@H]1CN([C@@H](C)CO)C(=O)CCCn2cc(nn2)CO[C@@H]1CN(C)S(=O)(=O)c1ccc2c(c1)OCCCO2	x	x	x	7	x	1	0	5&-6
COc1ccc(CC(=O)Nc2ccc(-c3nnc(-c4ccc(C)cc4)o3)cc2)cc1	-3	-3	-7	-26	i	-2	-3	-7
COc1ccc(C=NNC(=O)c2cc(C)oc2C)cc1O	x	48	x	-54	x	x	x	-19
c1ccc(Cn2nnnc2CN2CCCC2)cc1	2	-13	-6	x	i	-1	-4	-6
O=[N+]([O-])c1ccc(-c2c(-c3ccccc3)ncc3cc(F)ccc23)cc1	x	8	x	20	x	2	2	-16
Cc1ccc(OCCNS(=O)(=O)c2cccs2)cc1	-8	-3	-1	-26	i	-3	1	2
O=C1/C(=C/c2ccc(O)c(O)c2)SC(=S)N1Nc1ccccc1	68	x	28	x	i	-15	64	x	eIF4H FP inh retest=-18;PABP polyA inh retest=-3
Cc1ccc(-c2nnc(Nc3ccc(C(=O)N(C)C)cc3)c3ccccc23)cc1S(N)(=O)=O	-11	-5	-16	12	i	1	0	-5
COCCCn1c(=O)c2sccc2n2c(CCCC(=O)N3CCN(c4ccccn4)CC3)nnc12	1	-10	-4	10	i	-1	-2	-7
CCN(CC(=O)NCc1cccs1)C(=O)C1CC(=O)N(c2ccc(OC)cc2OC)C1 (stereo not drawn)	x	-3	x	-5	i	4	0	-10
Cc1cc(C)c(NC(=O)CSc2nc3[nH]ncc3c(=O)[nH]2)c(C)c1	-5	x	-1	5	i	-1	-2	-10
Cc1cc(C)c(S(=O)(=O)N2CCCC(C(=O)NCc3ccccn3)C2)c(C)c1 (stereo not drawn)	5	-5	-6	-1	i	-1	1	-18
Cn1c(CCC(N)=O)nnc1SCC(=O)Nc1ccccc1C(=O)NC1CC1	x	-13	x	x	x	2	4	-12
COCC(C)NS(=O)(=O)c1ccccc1 (stereo not drawn)	5	-9	2	17	i	4	3	x
CCOc1ccc(OCc2nnc(SCC(=O)NC3CCS(=O)(=O)C3)n2-c2ccc(Cl)cc2)cc1 (stereo not drawn)	-9	-11	-3	35	i	4	-4	x
CCC1CCCCN1CCCNC(=O)C1CCC(CNS(=O)(=O)c2c(C)cc(C)cc2C)CC1 (stereo not drawn)	-8	4	0	-2	i	2	5	8
Cc1cc([N+](=O)[O-])ccc1NCc1ccc2c(c1)OCCO2	6	-4	-1	-348	i	3	-7	-15
CCOc1ccc(C(=O)NC2CCN(S(=O)(=O)CC)CC2)cc1	9	0	5	-98	i	-2	2	-4
Nc1nnnn1/N=C/c1ccccc1Cl	x	x	x	-64	x	-1	-1	-3
Cc1ccc(NC(=O)CSCC(=O)Nc2ccc(S(=O)(=O)N3CCOCC3)cc2)cc1	17	x	3	-11	i	-3	0	-12
SMILES	PABP polyA inh	CSC inhib	eIF4H FP inh	HIV Env fusion	Rce1 inh	MT1-MMP act inh	MT1-MMP act inh RFP	UUG fidelity	others
N#Cc1c(N)n(CCOC(=O)c2cccc([N+](=O)[O-])c2)c2nc3ccccc3nc12	-9	-6	-3	-14	i	6	7	-1
O=C(CCSCc1ccccc1F)NCCc1ccccc1	2	-8	7	-6	i	-2	3	1
CC(=O)c1ccc(OC2(C)CCN(CCOc3ccc(C)cc3)C2)cc1 (stereo not drawn)	x	x	x	-4	x	0	0	1
Fc1ccccc1-c1cc2ccccc2cn1	x	11	x	x	x	-5	1	-5
Cc1ccc(Cl)c2c1=NC(=O)C=2c1[nH]c(=S)[nH]c1O	-5	-3	-18	-22	i	5	3	16
COc1ccccc1NC(=O)C1CCN(S(=O)(=O)c2cccs2)CC1	x	x	x	-12	x	-4	4	-15
CC(C)OC(=O)C(=O)NNc1ccccc1	-10	99*	-11	3	i	3	6	64
COc1ccc(C=Nc2cccc3ncccc23)cc1	22	-2	u	22	i	-4	6	-12
C=CCN1C(=O)c2ccc(C(=O)OCC(=O)N(CC)C3CCS(=O)(=O)C3)cc2C1=O (stereo not drawn)	x	x	x	3	x	2	3	-7
CSc1nc(N)c2c(n1)OC(N)=C(C#N)C2c1cccnc1 (stereo not drawn)	7	x	7	12	i	-1	3	x
COc1cc(C2Nc3ccc4ncccc4c3C3=C2C(=O)CC(C)(C)C3)cc(OC)c1O (stereo not drawn)	32	-23	33	24	i	-6	-5	x
CC(C)(C)NC(=O)C(c1ccco1)N(C(=O)c1csnn1)c1ccccc1 (stereo not drawn)	-4	12	8	-61	i	0	8	-15
COC(=O)NNC(=O)c1ccc(C)cc1	-6	2	2	-10	i	10	11	-5
COc1ccc(Nc2ncnc3scc(-c4ccc(OC)cc4)c23)cc1	-2	-29	5	x	i	-10	-21	x
COc1ccccc1N1CCN(C2CCCN(C(=O)CCc3cnccn3)C2)CC1 (stereo not drawn)	-5	-2	8	1	i	3	0	-9
CC1=C(C(=O)N2CCOCC2)CC(CC(=O)NCc2cccc3ccccc23)C(=O)N1CCC1=CCCCC1 (stereo not drawn)	x	x	x	14	x	-1	2	0
O=C(COC(=O)CN1C(=O)c2ccccc2C1=O)Nc1ncc(Cl)cc1Cl	29	0	14	x	i	0	4	-11
CC(C)(C)c1ccc(S(=O)(=O)NCC(=O)Nc2sc3c(c2C(N)=O)CCCC3)cc1	2	-5	5	x	i	2	-4	-9
Cc1ccc(NC2=NCC(=O)N2Cc2ccccc2)c(C)c1	-3	-9	24	x	x	1	2	-14
COc1cc(C2N(Cc3ccccc3)CCN2Cc2ccccc2)ccc1OC(C)=O	9	-12	15	-59	i	6	4	-5
O=C(Nc1ccccc1)c1ccc(Cn2cc(C(F)(F)F)ccc2=O)cc1	3	6	-9	19	i	0	-3	-1
Cc1onc(-c2ccccc2)c1C(=O)Nc1ccc(S(=O)(=O)NC(C)(C)C)cc1	7	-6	-3	12	i	-9	-3	x
O=c1c2cn(Cc3ccccc3)c3ccccc3c-2nn1Cc1ccc(F)cc1Cl	-5	x	2	7	i	10	4	-12
CCOC(=O)c1cccc(NC(=O)C2CCCN2S(=O)(=O)c2cccc3cccnc23)c1 (stereo not drawn)	-1	-15	-4	-10	i	-1	6	-8
COc1ccc(OC)c(NC(=O)c2ccc(OC3CSC3)cc2)c1	5	-1	4	-7	i	4	5	-5
CCCCn1c(N)c(N(C)C(=O)c2cccc(-n3cnnn3)c2)c(=O)[nH]c1=O	x	-1	x	x	x	1	2	-16
COc1cc(OCC(=O)NC(C)C)cc2c1C(=O)O[C@@H](C)CCCC(=O)CCCCC2	2	-14	-1	73*	i	2	2	-6
O=S(=O)(c1ccc(Cl)cc1)N1CCSC1c1ccco1 (stereo not drawn)	5	-10	1	17	i	2	-2	-7
O=C(/C=C/c1ccc(Br)cc1)N1CCN(c2cccc(C(F)(F)F)c2)CC1	5	66	3	19	i	-8	-26	x
O=C(Cc1cc2ccccc2o1)NCc1ccc(F)cc1	1	x	-6	-71	i	1	3	-10

Not all compounds are listed; the hit share may differ from the screen's.
